GIRK2 activ: activators of human GIRK2 potassium channels | HEK293-GIRK2 thallium flux, Thallos fluorescence | P48051 | calls only for hits at 25 µM | actives 0.05% (n = 63,000);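 active = among the strongest 0.2% of first-round signals and kept after retests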;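 note: first round at about 10 µM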
Target sequence (P48051 whole entry, looked up): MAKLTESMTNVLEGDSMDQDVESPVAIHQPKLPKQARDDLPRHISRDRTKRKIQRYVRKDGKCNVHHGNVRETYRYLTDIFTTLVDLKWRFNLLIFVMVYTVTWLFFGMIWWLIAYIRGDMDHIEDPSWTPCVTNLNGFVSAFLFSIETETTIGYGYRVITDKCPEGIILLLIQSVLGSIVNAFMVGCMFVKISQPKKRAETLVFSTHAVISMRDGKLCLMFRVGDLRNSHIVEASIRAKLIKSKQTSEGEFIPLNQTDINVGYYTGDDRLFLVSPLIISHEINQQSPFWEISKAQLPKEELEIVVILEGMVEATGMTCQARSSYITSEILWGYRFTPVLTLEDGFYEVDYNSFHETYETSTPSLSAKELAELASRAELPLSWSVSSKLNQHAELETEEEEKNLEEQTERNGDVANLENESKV
Calls only; i = inactive.

SMILES | GIRK2 activ
CCOc1ccc(S(=O)(=O)N2CCCC(c3nnc(COc4ccccc4)o3)C2)cc1 (centres undefined) | i
Nc1ccc(S(=O)(=O)N2CCCCC2)cc1 | i
Cn1nc(C2CCN(CC(=O)NCc3ccc4c(c3)OCO4)CC2)n(-c2ccccc2)c1=O | i
CC1CCCN(S(=O)(=O)CCNC(=O)c2ccc3c(c2)OCO3)C1 (centres undefined) | i
O=C(c1ccc(S(=O)(=O)NC2CC2)o1)N1CCCc2ccccc21 | i
Cc1cccc2sc(OC3CN(C(=O)Cc4ccc(S(C)(=O)=O)cc4)C3)nc12 | i
CCn1nc(C(=O)Nc2cccc3c2C(=O)N(C)C3=O)cc1C | i
O=C(Nc1ccc2c(c1)C(=O)NCC2)c1ccc(Cl)c(Cl)c1 | i
CCCc1cc(N2CCOCC2)n2nc3nc(C)cc(C)c3c2n1 | i
CC(=O)CC1(O)C(=O)N(CCCOc2ccccc2)c2ccc(Cl)cc21 (centres undefined) | i
Cc1ccc2c(c1)OCC(=O)N2Cc1nc(-c2ccccc2)no1 | i
COc1ccc(N2CC(c3n[nH]c(=S)o3)CC2=O)cc1 (centres undefined) | i

Not a retest: entries from further up.
SMILES | GIRK2 activ
CC1CCCN(S(=O)(=O)CCNC(=O)c2ccc3c(c2)OCO3)C1 (centres undefined) | i
O=C(c1ccc(S(=O)(=O)NC2CC2)o1)N1CCCc2ccccc21 | i

The list continues.
SMILES | GIRK2 activ
Cc1nnc(SCC2=C(C(=O)O)N3C(=O)C(NC(=O)Cn4cnnn4)C3SC2)s1 (centres undefined) | i
COc1ccc(NC(=O)c2ccc3nn(CC(=O)Nc4cc(OC)ccc4OC)c(=O)n3c2)cc1 | i
CN(C)CC1COCCN1C(=O)c1ccc(OC(F)(F)F)cc1 (centres undefined) | i
COc1cccc(-c2nc(CSc3nc4ccccc4c(=O)n3C(C)C)c(C)o2)c1OC | i
O=C(Nc1nnc(-c2ccsc2)o1)C1(c2cccs2)CCCC1 | i
COc1cccc(-n2nnc(C(=O)NCCc3cccs3)c2C)c1 | i
CCNS(=O)(=O)c1ccc2nc(NC(=O)/C=C/c3cc(OC)c(OC)c(OC)c3)sc2c1 | i
Cc1ccc2nc(C3CN(C(=O)c4cc(-c5ccc(F)cc5)nn4C)C3)[nH]c2c1 | i
CC(=O)c1cccc(NC(=O)CSc2ncnc3scc(-c4ccc(C)cc4)c23)c1 | i
CNC(=O)CSc1ncc(-c2cccc([N+](=O)[O-])c2)n1-c1ccccc1C | i
Cc1csc(NC(=O)Cc2cc(=O)[nH]c(SCc3cccc(Cl)c3)n2)n1 | i
O=C(NCCc1c[nH]c2ccccc12)c1ccc(Cn2c(=S)[nH]c3cc4c(cc3c2=O)OCO4)cc1 | i
COc1ccc(NC(=O)Nc2cccc(-c3csc4nc(C)cc(=O)n34)c2)cc1OC | i
Cc1cc(C)nc(Nc2nc(CC(=O)Nc3ccc4c(c3)OCCO4)cs2)n1 | i
C/C=C\C=C\[C@@H]1O[C@](O)(C(CO[C@@H]2C[C@@H](OC)[C@@H](OC3C[C@@H](OC)[C@@H](OC4C[C@@H](OC)[C@@H](O)[C@@H](C)O4)[C@H](C)O3)[C@@H](C)O2)C(=O)NC/C=C/C=C(\C)C(OC)C(C)C2CC(O)C(/C=C/C=C/C=C/C(=O)O)O2)[C@H](O)[C@H](OC(=O)Cc2ccccc2)C1(C)C (some centres undefined) | i
O=C(CNC(=O)c1ccc(C(F)(F)F)cc1)Nc1nc2ccccc2[nH]1 | i
Cc1cc(-n2nnc(C(=O)N3CCN(c4ccccn4)CC3)c2-c2ccncc2)ccc1F | i
O=C(Nc1cc(N2CCCC2)ncn1)C1CCCN(c2cc(-n3ccnc3)ncn2)C1 (centres undefined) | i
O=C(NCCCN1CCN(c2ccccc2)CC1)C(=O)Nc1cccc(C(F)(F)F)c1 | i
CCNC(=O)c1nc(C(=O)NCCc2ccc(Cl)cc2)cs1 | i
Cc1cccc(OCCSc2nc3ccccc3n2C)c1 | i
CCC(O)=NS(=O)(=O)c1ccc(-c2c(-c3ccccc3)noc2C)cc1 | i
COCCCNC(=O)c1c(N)n(/N=C\c2ccc(N(C)C)cc2)c2nc3ccccc3nc12 | i
CCc1ccc(-n2c(C)cn3c4c(=O)n(CCOC)c(=O)n(C)c4nc23)cc1 | i

17 entries from above, in markdown:
| Compound | GIRK2 activ |
| --- | --- |
| CCOc1ccc(S(=O)(=O)N2CCCC(c3nnc(COc4ccccc4)o3)C2)cc1 (centres undefined) | i |
| Nc1ccc(S(=O)(=O)N2CCCCC2)cc1 | i |
| Cn1nc(C2CCN(CC(=O)NCc3ccc4c(c3)OCO4)CC2)n(-c2ccccc2)c1=O | i |
| CC1CCCN(S(=O)(=O)CCNC(=O)c2ccc3c(c2)OCO3)C1 (centres undefined) | i |
| O=C(c1ccc(S(=O)(=O)NC2CC2)o1)N1CCCc2ccccc21 | i |
| Cc1cccc2sc(OC3CN(C(=O)Cc4ccc(S(C)(=O)=O)cc4)C3)nc12 | i |
| CCn1nc(C(=O)Nc2cccc3c2C(=O)N(C)C3=O)cc1C | i |
| O=C(Nc1ccc2c(c1)C(=O)NCC2)c1ccc(Cl)c(Cl)c1 | i |
| CCCc1cc(N2CCOCC2)n2nc3nc(C)cc(C)c3c2n1 | i |
| CC(=O)CC1(O)C(=O)N(CCCOc2ccccc2)c2ccc(Cl)cc21 (centres undefined) | i |
| Cc1ccc2c(c1)OCC(=O)N2Cc1nc(-c2ccccc2)no1 | i |
| COc1ccc(N2CC(c3n[nH]c(=S)o3)CC2=O)cc1 (centres undefined) | i |
| Cc1nnc(SCC2=C(C(=O)O)N3C(=O)C(NC(=O)Cn4cnnn4)C3SC2)s1 (centres undefined) | i |
| COc1ccc(NC(=O)c2ccc3nn(CC(=O)Nc4cc(OC)ccc4OC)c(=O)n3c2)cc1 | i |
| CN(C)CC1COCCN1C(=O)c1ccc(OC(F)(F)F)cc1 (centres undefined) | i |
| COc1cccc(-c2nc(CSc3nc4ccccc4c(=O)n3C(C)C)c(C)o2)c1OC | i |
| O=C(Nc1nnc(-c2ccsc2)o1)C1(c2cccs2)CCCC1 | i |

Additional entries
SMILES | GIRK2 activ
COc1ccc(NCCN2N=C(C)C(C)n3c2nc2c3c(=O)n(C)c(=O)n2C)cc1 (centres undefined) | i
Cc1ccc(S(=O)(=O)NCCCCCC(=O)NCc2cccnc2)cc1 | i
O=c1ccn(-c2ccc(F)c(F)c2)nc1-c1nc(-c2ccc(Cl)cc2)no1 | i
COc1ccc(F)cc1S(=O)(=O)N1CCN=C1c1ccccc1 | i
COc1ccc(-c2cn3c(C(=O)Nc4ccc(S(N)(=O)=O)cc4)csc3n2)cc1 | i
COc1ccc(-c2cn[nH]c2-c2ccc(OCC(=O)NN)cc2O)cc1OC | i
Cn1c(=O)c2cc(C(=O)N3CCN(c4ccccc4F)CC3)sc2n(C)c1=O | i
O=C(c1ccccc1Br)N1CCC(Cn2ccnc2-c2ccccc2)CC1 | i
COC(=O)N1CCc2ccc(Br)cc2C1C(=O)Nc1ccc(SC)cc1 (centres undefined) | i
O=S(=O)(NCCN1CCN(c2ccccc2)CC1)c1ccc2c(c1)CCCC2 | i
CCOc1ccccc1-c1nc(CN(c2ccccc2OC)S(=O)(=O)c2ccccc2)c(C)o1 | i
COc1ccc(N2C(=O)CSC23C(=O)N(CC(=O)NCc2ccco2)c2ccccc23)cc1 (centres undefined) | i
O=c1c2nc(N3CCOCC3)sc2c(-c2ccc(F)cc2)nn1Cc1c(F)cccc1Cl | i
O=C(NCC1CCN(C(=O)c2ccccc2F)CC1)c1ccc(OC(F)(F)F)cc1 | i
Cc1ccccc1NC(=O)NCC1CCN(C(=O)c2ccoc2)CC1 | i
Cc1nc2n(c(=O)c1C)C(CC(=O)NCCn1nc(C3CC3)n(-c3ccccc3)c1=O)CS2 (centres undefined) | i
CSc1ccc(CNC(=O)C2CCN(c3c(C#N)cnc4ccccc34)CC2)cc1 | i
CCC(=O)Nc1cc(-c2ccco2)nn1-c1nc2c(c(=O)[nH]1)CCC2 | i
COc1ccc(CNC(=O)Cn2cnc3c([nH]c4cc(OC)c(OC)cc43)c2=O)cc1 | i
NS(=O)(=O)c1ccc(C(=O)N2CCN(c3ccc4nncn4n3)CC2)cc1 | i
Nc1c(C(=O)NCCCc2ccccc2)c2nc3ccccc3nc2n1/N=C\c1ccncc1 | i
O=C(COc1cccc(C(F)(F)F)c1)Nc1ccccc1-c1ccc(=O)[nH]n1 | i
CCOC(=O)C1=C(C)NC2=C(C(=O)CC(C)(C)C2)C1c1ccc([N+](=O)[O-])cc1 (centres undefined) | i
COC(=O)c1ccc(C(=O)NCCC(O)c2ccoc2)cc1 (centres undefined) | i
CCOC(=O)N1CCN(S(=O)(=O)c2ccc(-c3csc(C)n3)s2)CC1 | i
CC(C)CC[C@@]1(O)c2cc3c(O)cccc3cc2C(=O)[C@H](C)[C@]1(O)C(=O)O | i
CNc1nn(CC(=O)Nc2cc(C)ccc2C)c(N)c1-c1nc(-c2ccc(Cl)cc2)no1 | i
COc1ccc(-n2c(C)nc3ccc(NC(=O)c4cccc(OC)c4OC)cc3c2=O)cc1 | i
CCCCCNC(=O)c1nnn(-c2cc(C(F)(F)F)ccc2Cl)c1-c1cccnc1 | i
COc1ccc(C2(CNC(=O)C3CC(=O)N(c4cccc(Br)c4)C3)CCOCC2)cc1 (centres undefined) | i
CCc1cccc(NC(=O)CSc2nc3c(sc4ncccc43)c(=O)n2Cc2ccccc2)c1 | i
COc1ccc(CCC(=O)N2CC(Oc3nc4c(OC)cccc4s3)C2)cc1 | i
Cc1cn2c3c(=O)[nH]c(=O)n(C)c3nc2n1CCCl | i
O=C(NCc1cccnc1)c1cc([N+](=O)[O-])cc([N+](=O)[O-])c1 | i
N#Cc1cccc(NC(=O)Cn2cnc3c(-c4ccccc4)csc3c2=O)c1 | i
COC(=O)Cn1c(=O)c2c(nc3n(-c4ccc(Oc5ccccc5)cc4)c(C)cn23)n(C)c1=O | i
COc1ccccc1C1(CNC(=O)c2cc(C3CC3)on2)CCOCC1 | i
COc1ccc(-c2noc(-c3c(SC)nn(CC(=O)NCc4cccc(OC)c4)c3N)n2)cc1 | i
COc1ccc(/C=C2\Oc3cc(OC(=O)c4ccco4)ccc3C2=O)c(OC)c1OC | i
CCOC(=O)CN1CCN(c2nc3c(c(=O)[nH]c(=O)n3C)n2Cc2ccccc2C)CC1 | i
CC(C)(C)c1ccc(S(=O)(=O)NCc2ccc(C(=O)NCC3CCCO3)cc2)cc1 (centres undefined) | i
Cc1cc(C(F)(F)F)nc(CCNC(=O)/C=C/c2cccs2)n1 | i
Cc1nn(C)cc1C(C)Nc1ncc2c(=O)n(Cc3ccccc3)c(=O)[nH]c2n1 (centres undefined) | i
COc1cccc(C(=O)Nc2ccc(Cn3cnc(C(=O)Nc4ccccc4)c3)cc2)c1 | i
CCOc1ccc(-c2cc3c(=O)n(Cc4nc(-c5ccc(Cl)cc5)no4)ccn3n2)cc1Cl | i
CCC(=O)Nc1c(-c2ccccn2)nsc1C(=O)NCc1ccc2c(c1)OCO2 | i
COC(=O)c1ccc(C(=O)NCC2CCN(C(=O)Oc3ccccc3)CC2)cc1 | i
CCCCc1ccc(N2CC(C)Cn3c2nc2c3c(=O)n(CC(N)=O)c(=O)n2C)cc1 (centres undefined) | i
O=c1c2ccccc2n(Cc2nc(-c3ccc(C(F)(F)F)cc3)no2)c(=O)n1CC1CCCO1 (centres undefined) | i
CCOC(=O)c1ccc(NC(=O)c2c(O)c3sccc3n(C)c2=O)cc1 | i
COC(=O)Nc1ccc(S(=O)(=O)N2CCCC(C(=O)Nc3cccc(C(F)(F)F)c3)C2)cc1 (centres undefined) | i
COC(=O)c1ccc(S(=O)(=O)NCC(O)Cc2ccccc2)cc1 (centres undefined) | i
CC1(C)OCC2(CO1)CN(S(=O)(=O)c1ccc(Cl)s1)C2 | i
Cc1ccc2nc(C3CN(C(=O)Cc4cccc5ccccc45)C3)[nH]c2c1 | i
O=C1NC(=NCc2ccccc2Br)S/C1=C\c1ccc2ncccc2c1 | i
COc1ccccc1C(O)Cn1cc(C(=O)NC(C)CCc2ccco2)nn1 (centres undefined) | i
COc1ccc(S(=O)(=O)NCCN2CCN(c3ccccc3)CC2)c(OC)c1 | i
Cc1ccc(OCc2ccc(-c3nc(C#N)c(N4CCC(C(N)=O)CC4)o3)o2)cc1 | i
CCCCC[C@H](O)/C=C/[C@H]1C(=O)C[C@H](O)[C@@H]1C/C=C\CCCC(=O)O | i
COCCN(Cc1ccsc1)C(=O)Cc1ccc(F)cc1 | i
Following part:
SMILES | GIRK2 activ
CCc1ccc(-n2c(C)cn3c4c(=O)n(CC(=O)OC)c(=O)n(C)c4nc23)cc1 | i
COc1ccc(/C=C/C(=O)c2cc(C)ccc2O)c(OC)c1 | i
COc1ccc(CNC(=O)NCC#CCN2CCOCC2)cc1OC | i
CC(O)(CNC(=O)C(=O)Nc1cccc(C(F)(F)F)c1)c1ccc2c(c1)OCO2 (centres undefined) | i
COc1ccc(-c2nn3c(N4CCN(c5nc(C)cc(C)n5)CC4)cc(C)nc3c2C)cc1OC | i
O=C(c1ccccn1)N1CCN(C(=O)C2CC2c2ccc3c(c2)OCO3)CC1 (centres undefined) | i
COc1cccc(-n2c(C)c(C)n3c4c(=O)[nH]c(=O)n(C)c4nc23)c1 | i
CCc1cccc2sc(N(CCCn3ccnc3)C(=O)c3cc(OC)cc(OC)c3)nc12 | i
Cc1c(C)c(C)c(S(=O)(=O)NCC2CCN(C(=O)c3cccnc3)CC2)c(C)c1C | i
COc1ccc(N2CCCn3c2nc2c3c(=O)n(CC(N)=O)c(=O)n2C)c(OC)c1 | i
O=C(COc1ccc(F)cc1)NCCC(O)c1cccc2ccccc12 (centres undefined) | i
COc1cc(OC)cc(C(=O)N2CCC3(CC2)NC(=O)c2cc(C)ccc2N3C)c1 | i
Cc1noc(C)c1CC(=O)N1CCC(Oc2ccc(C(F)(F)F)cn2)CC1 | i
CCc1ccc(N2C(=O)C3N=NN(CC(=O)Nc4cccc(SC)c4)C3C2=O)cc1 (centres undefined) | i
Cc1ccc2[nH]c3c(=O)n(CCC(=O)NCCCc4ccccc4)cnc3c2c1 | i
O=C(CSc1n[nH]c(=O)c2cc(-c3cccs3)nn12)Nc1ccccc1Br | i
CCOC(=O)c1ccc(NC(=O)CCS(=O)(=O)Cc2ccccc2)cc1 | i
COc1ccc(CNC(=O)N2CCC(Oc3ccc(Cl)cn3)CC2)cc1OC | i
O=C(NCC1CCCO1)C(=O)Nc1ccc(OC(F)(F)F)cc1 (centres undefined) | i
COc1cc(C2C3=C(CC(C)(C)CC3=O)Nc3ncnn32)ccc1OCC(N)=O (centres undefined) | i

Compound activity deposited in PubChem BioAssay by Vanderbilt University.

These rows are one share of the data; rates above refer to the full screens.
